LT uptake inh = qHTS Assay for Anthrax Lethal Toxin Internalization | Cells, anthrax lethal toxin internalization, FRET ratio (460/530) | Potency, µM (highest dose often 40 µM), for the others: top-dose activity change, negative = inhibition, actives largely listed as inhibitors | 70,000 tested, 0.67% active; active = well fitted falling ratio curve with the 530 nm signal flat; inconclusive = other ratio curves, or a change in one channel alone; inactive = flat curves in the ratio and both channels; the % refers to the ratio; note: % is set by controls: 0 for no effect and ±100 for the full control effect; nearly all actives have a fitted effect of over 50% in size; tested in ME-180 cells; beta-lactamase reporter
Prx2 Sm inh = Schistosoma Mansoni Peroxiredoxins (Prx2) | 65,000 tested, 0.07% active | S. mansoni Prx2 activity coupled to TGR/GSH (TGR is thioredoxin glutathione reductase), NADPH fluorescence loss, qHTS; some inactives read as strong as hits | Potency, µM | Schistosoma mansoni peroxiredoxin 2 (Prx2) | AID 448, 2006; active means full or partial inhibition curve with a strong effect at the top dose; inconclusive means weaker partial or single-point curve; inactive means no accepted curve; note: series up to 57 µM; many of its hits are not listed in these tables
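Prx2 inhibition was measured as reduced NADPH consumption when electrons flowed from NADPH through TGR and glutathione to Prx2 and H2O2. Plates were read kinetically over 8 min; enzyme reagents were held at 4 deg C during dispensing.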
* = called active by the depositor; ? = inconclusive; . = not tested or not shown; & = joins results of further samples; [ ] = another dose, or the depositor's remark. Potency is the fitted concentration of half-maximal effect. Only part of the results is shown. The share of hits here may be higher or lower than overall.

molecule,LT uptake inh,Prx2 Sm inh
CC(C)c1ccc(CNc2ccc(N3CCOCC3)cc2)cc1,-4.6%,>57
CC(=O)C1=C(C)NC(=O)NC1c1ccc(OC2CCCC2)cc1 (stereo not given),13.2%,>57
O=C(c1cnccn1)N1CCC[C@@]2(CCN(c3ccncc3)C2)C1,?,>57
Cc1cc(NS(=O)(=O)c2ccc(NC(=O)C(C)Oc3ccc4c(C)cc(=O)oc4c3)cc2)no1 (stereo not given),8.1%,>57
O=C(c1ccco1)N(c1ccccn1)c1ccccn1,-2.2%,.
C/C(=C\c1ccco1)C1Nc2cccc3cccc(c23)N1,-1.9%,>57
COC(=O)C1=C(C)NC2=C(C(=O)CCC2)C1c1ccsc1 (stereo not given),20.1%,>57
O=C(CN1CCN(Cc2ccccc2)CC1)N1CCCc2c1c(=O)oc1ccc(O)cc21,2.8%,>57
Nc1ncnc2c1ncn2[C@@H]1O[C@H](COP(=O)(O)O)[C@@H](O)[C@@H]1O,?,>57
CC1=C(C(=O)OC(C)C)C(c2cccs2)N2C(=O)C(C)SC2=N1 (stereo not given),-2.7%,>57
O=C(NCCN1CCOCC1)c1cc(-c2ccc(Br)cc2)on1,3.0%,>57
CCOC(=O)c1ccccc1NC(=O)c1cncc(Br)c1,-5.3%,>57
COc1ccc(N2CC(O)=C(c3nc4ccccc4s3)C2=N)c(OC)c1,-5.6%,>57
Cn1c(=O)cc(SCC(=O)NCCCN2CCOCC2)c2ccccc21,-7.0%,>57
Cc1ccc2cc3cc(C(=O)NCc4ccco4)oc3nc2c1,?,>57
CCOc1ccccc1C1CC(c2ccc(F)cc2)Nc2nc(N)nn21 (stereo not given),13.0%,>57
Cc1cc(C)n(-c2ccc(Cl)c(C(=O)Nc3ccc(-c4nnc5n4CCCCC5)cc3)n2)n1,-3.4%,>57
CCn1c(SCC(=O)N2CCCC2)nnc1-c1ccc(S(=O)(=O)N2CCCCCC2)cc1,-18.4%,>57
Cc1cc(=O)n2[nH]c(-c3ccc(F)cc3)nc2n1,-4.6%,>57
CC(=O)C1=C(C)NC(SCSc2ccccc2)=C(C#N)C1c1cccnc1 (stereo not given),?,>57
CN(C(=O)COC(=O)c1ccc2c(c1)OCO2)C1CCS(=O)(=O)C1 (stereo not given),-2.4%,>57
O=C(CC(SCc1ccco1)c1ccc(O)cc1)c1cccs1 (stereo not given),?,>57
O=C(NCCCCC(NC(=O)C1CCCCC1)C(=O)O)c1ccccc1 (stereo not given),-13.5%,>57
O=C(c1ccc(S(=O)(=O)N2CCC(c3nc4ccccc4[nH]3)CC2)cc1)N1CCOCC1,-27.6%,>57
CCOc1ccc(-c2cc(CCCC(=O)N3CCN(c4ccc(OC)cc4)CC3)no2)cc1,-17.5%,>57
COc1ccc(C(=O)N(Cc2nc(-c3ccc(C)cc3)no2)C2CCCCC2)cc1OC,?,>57
N#CCCn1c(=O)c(-c2ccc(Cl)cc2)nc2cnc(Nc3ccccc3)nc21,?,>57
CSc1nc2c(ccc3ccccc32)o1,-17.0%,>57
COc1ccc2nccc(SCC(=O)O)c2c1,-6.4%[8 µM],>57
Nc1ncnc2c1ncn2[C@@H]1O[C@H](CO)C[C@@H]1O,-0.8%,.

The last 5 entries of the part above come first, to join the parts.
molecule,LT uptake inh,Prx2 Sm inh
COc1ccc(C(=O)N(Cc2nc(-c3ccc(C)cc3)no2)C2CCCCC2)cc1OC,?,>57
N#CCCn1c(=O)c(-c2ccc(Cl)cc2)nc2cnc(Nc3ccccc3)nc21,?,>57
CSc1nc2c(ccc3ccccc32)o1,-17.0%,>57
COc1ccc2nccc(SCC(=O)O)c2c1,-6.4%[8 µM],>57
Nc1ncnc2c1ncn2[C@@H]1O[C@H](CO)C[C@@H]1O,-0.8%,.
CC(O)Cc1nsc(NC(=O)c2cccs2)n1 (stereo not given),-8.2%,>57
CCOC(=O)CN1CC23C=CC(O2)C(C(=O)NCc2ccccc2OC)C3C1=O (stereo not given),7.7%,>57
COc1ccc2nc(SCc3cnc(C)nc3N)[nH]c2c1,9.2%,>57
CCCCC(=O)NC1(C(F)(F)F)C(=O)Nc2c1c(=O)n(C)c(=O)n2C (stereo not given),-19.9%,>57
Fc1ccc(CSc2ncnc3c2oc2ccccc23)cc1,3.3%,>57
CCCCOc1ccccc1C1C(C(N)=O)=C(C)Nc2nnnn21 (stereo not given),-3.1%,>57
CCOc1ccccc1N(C(=O)Cn1nnnc1-c1ccc(C)o1)C(CC)C(=O)NC(C)(C)C (stereo not given),-21.2%,>57
CCc1ccc(CNCc2cccnc2)cc1,-4.9%,>57
O=C(COC(=O)Cc1ccc(S(=O)(=O)N2CCCCC2)s1)Nc1ccc2c(c1)OCO2,-8.7%,>57
Cc1ccc(NC(=O)Cn2nnc(C(=O)NCc3cccs3)c2N)cc1,20.8%,>57
CC(C)CCNC(=O)CN(C(=O)CCC(=O)Nc1ccccn1)c1ccc2c(c1)OCO2,-5.3%,>57
Cc1nn(C(C)C(=O)N2CCc3ccccc3C2)c(=O)c2cc3occc3n12 (stereo not given),9.4%,>57
NC(=O)c1cccc(S(=O)(=O)N2CCCCC2)c1,15.7%,>57
COCC(C)NC(=O)CCS(=O)(=O)c1nc(-c2ccc(OC)cc2)cc(C(F)(F)F)n1 (stereo not given),?,>57
Cc1ccccc1C(=O)Nc1ccc(Br)c(C)n1,-17.5%,>57
Cc1cc2c(N=O)c(NO)ccc2[nH]1,10.6%,>57
CC(C)N(CCc1ccncc1)C(=O)Nc1ccc(Cl)c(Cl)c1,-6.1%,>57
CN(C(=O)c1ccc2c(c1)OCO2)C1(C(=O)NC2CCCCC2)CCCCC1,-3.9%,>57
COc1cc(C(=O)N2CCN(c3cccc(C)c3C)CC2)cc(OC)c1OC,-25.4%,>57
O=C(NCc1ccc2c(c1)OCO2)c1cccc(S(=O)(=O)N2CCCCC2)c1,-6.5%,>57
COc1cc(C(=O)O)cc(Br)c1OC1CCCC1,-9.2%,>57
CCOC(=O)CCNC(=O)Nc1ccc2nc(C)n(Cc3ccc(Cl)cc3)c(=O)c2c1,-6.1%,>57
COc1ccc(Cc2nc(-c3ccc(Cl)cc3)no2)cc1,?,>57
O=C(NCCCNC(=O)c1ccco1)c1ccco1,1.2%,.
CCN1CCN(Cc2nc3c(c(=O)n(C)c(=O)n3C)n2CCc2ccccc2)CC1,14.6%,>57
COc1cccc(C2/C(=C(/O)c3ccncc3)C(=O)C(=O)N2CCCN2CCOCC2)c1OC (stereo not given),-2.3%,>57
O=C1c2ccccc2C(=O)N1SC1CCCCC1,-4.3%,>57
COc1cccc(C(=O)CSc2nnc(CNS(C)(=O)=O)n2-c2ccc(C)cc2)c1,0.0%,>57
COc1cc2c(c(OC)c1OC)-c1ccc(OC)c(=O)cc1[C@H](NC(C)=O)CC2,?,>25.6&>57&>57
CCOC(=O)N1CCC(NC(=O)CSc2cc(=O)n(CC)c3ccccc23)CC1,1.7%,>57
O=C(c1ccco1)N1CCN(C(=O)c2cnn3c2NC(c2cccs2)CC3C(F)(F)F)CC1 (stereo not given),-1.1%,>57
Cc1ccc(S(=O)(=O)/C=C\C#N)cc1,?,>57
CCCN1C[C@H](CSC)C[C@H]2c3cccc4[nH]cc(c34)C[C@@H]21,-13.1%,>25.6&>57
O=C(Cn1c(NCCCO)nc2ccccc21)c1cccc(Br)c1,-25.0%,>57
COc1ccccc1C(c1nnnn1CCc1ccccc1)N1CCN(c2ccccc2)CC1 (stereo not given),7.94µM*,>57
CC(C)N1CCC2(CC1)N=C(c1ccc3c(c1)OCO3)CC(c1cc(Cl)ccc1O)N2 (stereo not given),?,>57
NS(=O)(=O)c1ccc(CCNc2cc(=O)n(Cc3ccc(F)cc3)c(=O)[nH]2)cc1,-13.0%,>57
Cc1nn2c3ccccc3nc2n(C)c1=O,4.5%,>57
CC(=O)CC(=O)Nc1ccccc1NC(C)=O,0.4%,.
CCOC(=O)c1cnc(-n2nc(C)cc2C)nc1Nc1ccc2c(c1)OCO2,-13.3%,>57
Fc1ccc(-c2cc(C(F)(F)F)nc(NCC3CCCO3)n2)cc1 (stereo not given),-2.0%,>57
Cn1c2ccc(CC(=O)O)cc2c2cc(CC(=O)O)ccc21,15.1%,>57
O=C(c1nc2ncccn2n1)N1CCN(c2ccccc2)CC1,-6.3%,>57
CC1CCCCC1NC(=O)Cn1nc(-c2ccccc2)ccc1=O (stereo not given),?,>57
CN(C)C(=O)CSc1nnc([C@H](Cc2c[nH]c3ccccc23)NC(=O)OC(C)(C)C)o1,8.6%,>57
Cn1c(-c2ccc(C(=O)c3ccccc3)s2)nc2ccccc21,12.2%,>57
COc1ccc(-c2nnc(SCC(=O)Nc3cc(C)on3)n2C)cc1OC,5.8%,>57
COc1ccc(C)cc1NC(=O)c1nnn(Cc2cc(C)ccc2C)c1N,-7.9%,.
O=C1CC(c2ccc(S(=O)(=O)NC3CC3)cc2)CN1 (stereo not given),13.5%,>57
Cc1ccnc(NS(=O)(=O)c2ccc(N=CC3=C(O)CC(C)(C)CC3=O)cc2)n1,4.4%,>57
COC(=O)c1nc(NC(=O)C(C)C)n[nH]1,?,?
CN(C)CC[C@@H](c1ccccc1)c1ccccn1,?,>57&>57
CCOC(=O)c1ccc(-n2c(C)nc3ccccc3c2=O)cc1,10.5%,.
CCN=C1SC(CC(=O)Nc2ccc(N3CCOCC3)cc2)C(=O)N1CC (stereo not given),-1.0%,.
COc1ccc(-c2nc3ccccc3o2)cc1NC(=O)c1ccc(Br)o1,?,.
O=C(CNCCO)NC12CC3CC(CC(C3)C1)C2,11.6%,>57
CC(C)(C)NC(=O)CN(C(=O)c1ccc(CN2CCOCC2)o1)c1ccc2c(c1)OCCO2,-7.8%,>57
Cc1cccc(N2CCN(C(=O)n3ccnc3)CC2)c1C,-6.6%,>57
C=C(C)CSc1nc(N)c(C#N)c(-c2ccc(C)cc2)c1C#N,?,>57
COc1cc(C)nc(SCC(N)=O)n1,4.5%,>57

(more compounds)
Each structure is followed by: LT uptake inh | Prx2 Sm inh
> CSC1=NP(=S)(SC)N(C)c2nc3n(c21)CCC3 (stereo not given)
 : -4.7% | >57
> CC(C)n1c(CNC(=O)c2ccccc2)nc2ccccc21
 : ? | >57
> CC(OC(=O)CCc1nc2ccccc2[nH]c1=O)C(=O)c1ccccc1 (stereo not given)
 : 5.2% | >57
> O=C(Cn1c(=O)sc2ccccc21)N1CCOCC1
 : -13.6% | >57
> COc1ccc(OC)c(NC(=O)CCN2CCN(c3ccccc3)CC2)c1
 : -10.9% | >57
> CCCc1cc(=O)[nH]c(SCC(=O)Nc2ccc(OC(F)F)cc2)n1
 : ? | >57
> CC(C)=CCC/C(C)=C/CO/N=C1/C[C@@H](O)[C@@H](O)[C@@H]2[C@@H]3C(=O)N(c4cccc(Oc5ccccc5)c4)C(=O)[C@H]3CC[C@@H]12
 : ? | .
> O=C(NCCSc1ccccc1)c1ccccc1
 : 6.2% | >57
> CCN(CC)c1ccc(NC(=O)c2cccc(C)c2OC)c(C)c1
 : . | >57
> CC(=O)Nc1ccc(C(=O)OCCC(C)C)cc1
 : -8.7% | >57
> CCNCCNC(=O)c1c(O)c2ccccc2n(CC)c1=O
 : -4.7% | >57
> O=S(=O)(c1ccc(OCC(O)CN2CCN(c3ccccc3O)CC2)cc1)N1CCOCC1 (stereo not given)
 : 9.1% | >57
> C(=C\c1ccccc1)/CSc1nnc(-c2cccnc2)n1Cc1ccco1
 : . | >57
> COc1ccc(CC(=O)N2CCOCC2)cc1OC
 : -7.2% | .
> CCC(=O)Nc1cccc(NC(=O)CSc2nnc(-c3ccc(NS(C)(=O)=O)cc3)n2C)c1
 : -18.6% | >57
> CCOc1ccc(C(=O)Nc2ccc(Cl)cn2)cc1Cl
 : -19.6% | >57
> CCCCNC(=O)c1ccc2c(c1)N(CC)C(=O)c1ccccc1S2(=O)=O
 : -11.7% | >57
> CCOC(=O)C1CCN(c2c(NCCN3CCN(c4ccccc4)CC3)c(=O)c2=O)CC1
 : 3.6% | >57
> O=C(O)c1cccc(CN2CCCCC2)c1
 : 1.2%[8 µM] | >57
> CCCc1c(O)nc(SCC(=O)NCCc2ccc(OC)c(OC)c2)[nH]c1=O
 : 0.8% | >57
> O=C(NC(NCc1ccccn1)(C(F)(F)F)C(F)(F)F)c1ccco1
 : 14.9% | >57
> O=C1C2C3CCCC3=C3CCCC3C2C(=O)N1c1ccc(F)cc1 (stereo not given)
 : ? | >57

Three structures from above, arranged by heavy-atom count, highest first.
Each structure is followed by: LT uptake inh | Prx2 Sm inh
> CC(C)n1c(CNC(=O)c2ccccc2)nc2ccccc21
 : ? | >57
> O=C(Cn1c(=O)sc2ccccc21)N1CCOCC1
 : -13.6% | >57
> CC(=O)Nc1ccc(C(=O)OCCC(C)C)cc1
 : -8.7% | >57

Molecules from the list above with a tert-butyl group:
Each structure is followed by: LT uptake inh | Prx2 Sm inh
> CCOc1ccccc1N(C(=O)Cn1nnnc1-c1ccc(C)o1)C(CC)C(=O)NC(C)(C)C (stereo not given)
 : -21.2% | >57
> CN(C)C(=O)CSc1nnc([C@H](Cc2c[nH]c3ccccc23)NC(=O)OC(C)(C)C)o1
 : 8.6% | >57
> CC(C)(C)NC(=O)CN(C(=O)c1ccc(CN2CCOCC2)o1)c1ccc2c(c1)OCCO2
 : -7.8% | >57
